VDR inhibitor = blocks the human vitamin D receptor; P11473; 0.93% of 400,000 active; Potency, µM, for the others: max response, negative = inhibition, hits mostly inhibitors; VDR-SRC2-3 peptide fluorescence polarization, 2 h; AID 504847; active = well fitted inhibition curve with a large enough effect; inconclusive = small, poorly fitted or top-dose-only effect, or another doubt; inactive = no such curve, though single readings can be large or run the other way; also: series mostly up to about 120 µM
Target sequence (P11473 whole entry, looked up): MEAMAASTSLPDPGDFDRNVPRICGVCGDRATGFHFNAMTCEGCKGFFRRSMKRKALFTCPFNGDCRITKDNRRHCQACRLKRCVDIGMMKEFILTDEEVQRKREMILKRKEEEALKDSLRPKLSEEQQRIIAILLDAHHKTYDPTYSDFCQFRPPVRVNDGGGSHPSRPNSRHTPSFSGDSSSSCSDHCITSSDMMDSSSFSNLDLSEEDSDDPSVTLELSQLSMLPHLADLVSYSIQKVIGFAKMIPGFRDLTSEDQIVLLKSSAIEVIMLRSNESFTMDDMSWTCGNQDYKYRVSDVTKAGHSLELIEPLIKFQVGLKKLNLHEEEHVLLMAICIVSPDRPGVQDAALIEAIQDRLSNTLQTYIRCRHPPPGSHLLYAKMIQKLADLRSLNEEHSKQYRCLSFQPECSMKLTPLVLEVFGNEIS
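After 23 nl compound addition and a short centrifugation, plates sat for 2 hours at ambient temperature; polarization of fluorescence then indicated loss of VDR binding to peptide SRC2-3.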
* marks the source's active call; other numbers are inactive results; ? = inconclusive; & = joins results of further samples. % is scaled to controls: 0 for no effect and ±100 for the full control effect; potency is read from the fitted curve at half-maximal effect.

SMILES | VDR inhibitor
COc1cccc(NC(=O)CN(C)C(=O)CN2C(=O)NC(C)(c3ccc(C)cc3)C2=O)c1 (stereo not given) | 3%
CCOC(=O)N1CCN(C(=O)Cc2ccc(Cl)cc2)CC1 | -9%
O=C(OCc1cc(=O)n2ccsc2n1)c1ccc(O)cc1O | 6%
CCN(CC(=O)Nc1ccc(Cl)c(S(=O)(=O)N(C)C)c1)Cc1nc2ccccc2c(=O)[nH]1 | -26%
Clc1ccc(CO/N=C/c2cccs2)cc1 | 9%
Cc1ccccc1OCC(=O)NNC(=O)Nc1ccc(Cl)cc1 | 13%
CC1=C(C(=O)Nc2ccc(C)cc2C)C(c2cccc([N+](=O)[O-])c2)n2nc(C(=O)OC(C)C)nc2N1 (stereo not given) | -16%
Cc1cccc(C(=O)NCCCNC(=O)c2cccnc2)c1 | 8%
NCCN1CCN(CCN)CC1 | 13%
Cc1cccc(N2CCN(C(=O)CCCCCn3c(=S)[nH]c4ccc(N5CCOCC5)cc4c3=O)CC2)c1C | -4%
CN(CC(=O)Nc1ccccc1Br)C(=O)c1cccc(S(=O)(=O)N2CCc3ccccc32)c1 | -1%
O=C(c1ccccc1)c1cccs1 | -1%
O=C(OCc1c(-c2ccccc2)ncc2ccccc12)c1ccco1 | -29%
COc1cccc(NC(=O)C2CCCN(c3nnc(-n4c(C)ccc4C)s3)C2)c1 (stereo not given) | 4%
CCCNC(=O)c1cc(-c2ccco2)on1 | 5%
Cc1ccc2c(C)nc(Nc3nc(CSc4nnc(C)s4)cc(=O)[nH]3)nc2c1 | 5%
COc1ccc(Cl)cc1NC(=O)CC1S/C(=N/N=C2CCCCCC2)NC1=O (stereo not given) | 11%
N#CCSc1nnc(N)s1 | -5%
Cc1nc2ncnn2c(C)c1C/C=C/c1ccccc1 | 10%
Cc1n[nH]c(=S)n(/N=C/c2cccc([N+](=O)[O-])c2)c1=O | 4%
O=C(CN1CCCCCC1)NN(Cc1ccccc1)c1ccccc1 | 16%
O=c1oc2ccccc2c2c1ncn2C1CCCCC1 | -6%
COC(=O)CCC(=O)Nc1ccc(NC(=O)CCC(=O)OC)cc1 | 0%
COc1ccc(NC(=O)CSc2nnc(-c3cc(C)[nH]n3)n2N)cc1 | -8%
O=C(Nc1ccc(CN2CCOCC2)cc1)c1ccco1 | -7%
O=C(Nc1ccc(S(=O)(=O)Nc2ccccn2)cc1)C(F)(F)F | -9%
COc1ccc(NS(=O)(=O)c2ccc3c(c2)NC(=O)CO3)c(OC)c1 | 17%
COc1cccc(-c2noc(-c3cccnc3)n2)c1 | 6%
COc1cccc(-n2c(=O)n(Cc3ccccc3)c(=O)c3[nH]cnc32)c1C | 13%
O=C(c1cnn2ccccc12)N1CCCc2ccccc21 | -2%
COC(=O)c1ccc(NC(=S)N2CCN(Cc3ccccc3)CC2)cc1 | 5%
Cc1ccc(Nc2n[nH]c(C)c2[N+](=O)[O-])c(C)c1 | 20%
CCOC(=O)c1c(Nc2cccc(O)c2)nnc(-c2ccccc2)c1-c1ccccc1 | -9%
COc1ccccc1NC(=O)C(C)OC(=O)CSCC(=O)Nc1cc(C)on1 (stereo not given) | -29%
CC1CCc2c(sc(NC(=O)CCCOc3ccccc3)c2C(N)=O)C1 (stereo not given) | -6%
O=C(NCCCN1CCCCCC1)C(c1ccccc1)C1CCCCC1 (stereo not given) | -3%
CCCOc1ccc(C(O)(CCN2CCCCC2)c2ccccc2OC)cc1 (stereo not given) | 16%
Cc1ccc(CNC(=O)C2CC(=O)N(CCC(C)C)C2)cc1 (stereo not given) | -12%
CCC(=O)N1CCCc2cc(S(=O)(=O)N3CCC(C(=O)NC4CCCCC4)CC3)ccc21 | 12%
Cc1ccc(-n2c(N)c(S(=O)(=O)c3ccccc3)c3nc4ccccc4nc32)cc1 | 5%
CC(CC(C)C(=O)Nc1ccccc1C(C)(C)C)C(=O)O (stereo not given) | 8%
O=C(NC1CC1)c1sc2cc([N+](=O)[O-])ccc2c1Cl | -8%
CSC(=N/N=C(\N)c1cnccn1)SC | 5%
CC(C)(C)OC(=O)N1CCC(C(N)=O)CC1 | -5%
COc1ccc(NS(=O)(=O)c2cc(C(=O)N(C)CCc3ccccn3)ccc2Cl)cc1 | -6%
O=C(NN1CCOCC1)c1cccc2ccccc12 | ?
CCCc1c(C(=O)NNc2ccccc2OC)cnn1-c1ccccc1 | -23%
Cc1cc(SCCC(=O)O)nc2c(C)cccc12 | -18%
c1ccc(-c2nccc(-c3ccco3)n2)nc1 | -1%
COc1cccc(-n2c(=O)c3sccc3n(Cc3cc(=O)n4cc(Cl)ccc4n3)c2=O)c1 | 10%
CCN(CCNC(=O)C1CCN(S(=O)(=O)c2c(C)noc2C)CC1)c1ccccc1 | 18%
COc1cc(NC(=O)c2ccco2)ccc1NC(=O)c1ccccc1Cl | -1%
O=C(Nc1cccc(NC(=O)c2ccco2)c1)c1ccc2c(c1)OCCO2 | 3%
Cc1csc(NC(=O)CSc2nnc(Cc3cccn3C)n2-c2ccc(F)cc2)n1 | -9%
COc1ccc(CN2C(=O)c3cccnc3C2=O)cc1S(=O)(=O)N(C)c1cccc(C)c1 | -6%
COc1cc(/C=C2/C(=N)N3N=C(CC(=O)N4CCOCC4)SC3=NC2=O)ccc1OCc1ccccc1F | -11%
CCCOc1ccccc1N1C(=O)CC(N(O)c2ccccc2)C1=O (stereo not given) | -8%
NC(=O)c1oc2ccccc2c1NC(=O)c1ccccc1 | -13%
COC(=O)c1sc(NC(=O)c2c(F)cccc2F)c(C#N)c1C | -9%
O=C(CC1S/C(=N/N=C/C=C/c2ccccc2)NC1=O)Nc1ccc(C(=O)O)cc1 (stereo not given) | 21%

Next part.
SMILES | VDR inhibitor
O=S1(=O)C[C@H]2NC(=S)N(c3ccccc3)[C@H]2C1 | 10%
O=C(NCCC1=CCCCC1)C1CCCN(S(=O)(=O)c2cccnc2)C1 (stereo not given) | -16%
CCOc1ccc(CN(CCO)CCO)cc1C(=O)OC | 4%
CC1CCCC(NC(=S)Nc2ccc(SC(F)F)cc2)C1C (stereo not given) | 9%
Cc1cc(C)cc(NC(=O)c2ccc([N+](=O)[O-])o2)c1 | 1%
Cc1cccc(C(=O)OCC(=O)N2CCCC2=O)c1[N+](=O)[O-] | -29%
CCCn1c(=O)c(C(=O)NNS(=O)(=O)c2ccc(Cl)cc2)c(O)c2ccccc21 | -3%
COc1ccc(S(=O)(=O)NCCc2c[nH]c3ccccc23)cc1OC | -3%
CC(C)(C)c1ccc(C(=O)O/N=C(\N)c2ccccc2)cc1 | -9%
COc1ccc(N=C2S/C(=C\c3ccc(Cl)c([N+](=O)[O-])c3)C(=O)N2CCN(C)C)cc1 | ?
COc1ccc(OC)c(NC(=O)CSc2nnc(C3CCCCC3)o2)c1 | 0%
O=C(CSc1oc(-c2ccco2)nc1S(=O)(=O)c1ccccc1)NCC1CCCO1 (stereo not given) | -10%
Cc1cccc(NC(=O)c2ccc([N+](=O)[O-])s2)c1C | -10%
Cc1cccc(NS(=O)(=O)c2ccc3c(c2)C(C)(C)C(=O)N3C)c1 | 19%
N#Cc1nc(Nc2cccc(Cl)c2)c2ncn(C3CCCC3)c2n1 | -5%
Cc1ccc(S(=O)(=O)NCC(=O)Nc2ccc(C(F)(F)F)cc2)cc1 | 6%
O=c1ccc(N=Nc2ccccc2)ccc1O | -4%
Cc1ccc(/C=N/N2CCN(Cc3ccccc3)CC2)o1 | -13%
CC(=O)c1ccc(N2CCN(C(=O)CCN3C(=S)NC(C)(C)CC3C)CC2)cc1 (stereo not given) | -9%
O=C(NCc1ccc2c(c1)OCO2)C1CCCN1C(=O)Nc1ccc(F)cc1 (stereo not given) | 4%
O=C(CN1CCCCC1)N/N=C/c1ccc(Cl)cc1Cl | 0%
O=C(/C=C/c1ccccc1)Nc1ccc(CN2CCOCC2)cc1 | -3%
Cc1ccc(C)n1-c1nnc(N2CCC(C(=O)NCCCN3CCN(C)CC3)CC2)s1 | -13%
CCCCOCCO | 3%
O=C(CCNC(=O)c1ccc(Br)cc1)NCc1cccnc1 | 9%
Cc1noc(C)c1-c1ccc2ncnc(N3CCC(C(=O)O)CC3)c2c1 | 5%
COc1cccc(/C=C2\SC(=S)N(N3C(=O)CCCC3=O)C2=O)c1 | -2%
Cc1c(C(=O)C(=O)NCc2cccs2)c2ccccc2n1C | 6%
COc1cccc(Cn2nc(SC)c(S(=O)(=O)c3ccccc3)c2N(C(C)=O)C(C)=O)c1 | -7%
COC(=O)c1c(NC(=O)c2ccoc2C)sc2c1CCC2 | -6%
Cc1cc(C)c(S(=O)(=O)NCC2CCC(C(=O)NCc3ccc4c(c3)OCO4)CC2)c(C)c1 (stereo not given) | -4%
N#CCCn1c(=O)c(-c2ccc(F)cc2)nc2cnc(OCc3ccccc3)nc21 | 0%
CC(C)NC(=S)NNc1ncnc2sc3c(c12)CC(C)(C)OC3 | -5%
CC1CCc2nc(NC(=O)c3ccc(N4C(=O)CCC4=O)cc3)sc2C1 (stereo not given) | -10%
CCCCC1S/C(=N/N=C/c2ccco2)NC1=O (stereo not given) | 17%
Cc1ccc(-c2nn(CC(=O)NC(C)c3ccccc3)c(=O)c3ccccc23)cc1 (stereo not given) | 5%
CC(=O)c1ccc(N2CCN(C(=O)Nc3ccc(Cl)cc3)CC2)cc1 | 3%
CN(CCc1ccccc1)C(=O)c1cccc(NC(=O)Cc2cccc(NC(=O)C3CCCN(C(=O)C4CCC4)C3)c2)c1 (stereo not given) | ?
COCCNC(=O)C1CC(c2ccc([N+](=O)[O-])cc2)=NO1 (stereo not given) | 17%
Cc1ccc(CNC(=O)CN2C(=O)C3CCCCN3c3ccc(C(=O)N(C)C)cc32)cc1 (stereo not given) | 6%
CC(=O)c1c(C)n(-c2ccc(C)cc2)c2ccc(O)cc12 | 5%
CCN(CC)C(=O)C1CCCN(Cc2ccc(N(C)C)cc2)C1 (stereo not given) | -10%
CCOc1ccc(NC(=S)N2CCN(c3ccc(N4CCOCC4)nn3)CC2)cc1 | 7%
CCOc1ccc(CC(=O)Nc2c(C(=O)c3ccccc3)oc3ccc(OC)cc23)cc1OCC | -14%
CC(O)CNCCCOc1ccc(Cl)cc1C(C)(C)C (stereo not given) | 6%
C=C1c2cc(C)ccc2NC(=O)N1c1ccc(C)cc1 | -2%
O=C(Nc1ccc(Cl)cc1)c1ccc(-n2cccn2)c([N+](=O)[O-])c1 | -16%
COCCCNC(=O)CCn1c(=O)c2ccccc2n(CC(=O)NCCc2ccc(OC)c(OC)c2)c1=O | 14%
COc1ccc(-c2nnc3ccc(SC)nn23)cc1 | -2%
COc1ccc(-c2n[nH]c(=S)n2C2CCCCC2)cc1 | 1%
CCc1noc(C)c1C(=O)OCC(=O)c1ccccc1OC | -5%
CC1(C)Cc2c(sc3c2c(=O)n(-c2cccc(Cl)c2)c(=O)n3CC(N)=O)CO1 | 2%
COc1cccc(-c2nn(C)c3sc(C(=O)NCc4ccc(C)cc4)cc23)c1 | -7%&2%
COc1ccc(NC(=O)CSc2oc(-c3ccco3)nc2S(=O)(=O)c2ccc(Br)cc2)c(OC)c1 | 10%
NC1=NC2(CCCCC2)N(c2cccc(Cl)c2)C(N)=N1 | -19%
COC(=O)N/N=C(\C)c1ccc2ccccc2c1OC(F)F | 3%
CCc1c(C)nc2ccc(Br)cc2c1SCCC#N | 3%
CCC(C)[C@@H](C(=O)Nc1ccc(OC)c(OC)c1)N1Cc2ccccc2C1=O (stereo not given in full) | 3%
COc1cccc(/C=N/NC(=O)c2nnn(-c3nonc3N)c2C(C)C)c1 | 2%
Cc1cc(C)cc(OC(=O)CCN2C(=O)C3C4C=CC(C5CC45)C3C2=O)c1 (stereo not given) | 5%

More compounds.
SMILES | VDR inhibitor
CCn1c(=N)c(C(=O)NC2CCCC2)cc2c(=O)n3ccccc3nc21 | 3%
N#CCC(=O)Nc1ncc(Cc2ccccc2Cl)s1 | 3%
CCS(=O)(=O)Nc1cc(-c2nc3cccnc3s2)ccc1C | -4%
O=C(NCc1ccncc1)C1=NN(c2ccccc2)C(=O)CC1 | -23%
C=CCn1c(SCC(=O)NC(=O)c2cccn2C)nc2ccccc2c1=O | -5%
O=C(NCCNC(=O)c1ccccc1[N+](=O)[O-])c1ccccc1[N+](=O)[O-] | 0%

Structures above that have a Cl atom, in the order listed:
SMILES | VDR inhibitor
CCOC(=O)N1CCN(C(=O)Cc2ccc(Cl)cc2)CC1 | -9%
CCN(CC(=O)Nc1ccc(Cl)c(S(=O)(=O)N(C)C)c1)Cc1nc2ccccc2c(=O)[nH]1 | -26%
Clc1ccc(CO/N=C/c2cccs2)cc1 | 9%
Cc1ccccc1OCC(=O)NNC(=O)Nc1ccc(Cl)cc1 | 13%
COc1ccc(Cl)cc1NC(=O)CC1S/C(=N/N=C2CCCCCC2)NC1=O (stereo not given) | 11%
O=C(NC1CC1)c1sc2cc([N+](=O)[O-])ccc2c1Cl | -8%
COc1ccc(NS(=O)(=O)c2cc(C(=O)N(C)CCc3ccccn3)ccc2Cl)cc1 | -6%
COc1cccc(-n2c(=O)c3sccc3n(Cc3cc(=O)n4cc(Cl)ccc4n3)c2=O)c1 | 10%
COc1cc(NC(=O)c2ccco2)ccc1NC(=O)c1ccccc1Cl | -1%
CCCn1c(=O)c(C(=O)NNS(=O)(=O)c2ccc(Cl)cc2)c(O)c2ccccc21 | -3%
COc1ccc(N=C2S/C(=C\c3ccc(Cl)c([N+](=O)[O-])c3)C(=O)N2CCN(C)C)cc1 | ?
N#Cc1nc(Nc2cccc(Cl)c2)c2ncn(C3CCCC3)c2n1 | -5%
O=C(CN1CCCCC1)N/N=C/c1ccc(Cl)cc1Cl | 0%
CC(=O)c1ccc(N2CCN(C(=O)Nc3ccc(Cl)cc3)CC2)cc1 | 3%
CC(O)CNCCCOc1ccc(Cl)cc1C(C)(C)C (stereo not given) | 6%
O=C(Nc1ccc(Cl)cc1)c1ccc(-n2cccn2)c([N+](=O)[O-])c1 | -16%
CC1(C)Cc2c(sc3c2c(=O)n(-c2cccc(Cl)c2)c(=O)n3CC(N)=O)CO1 | 2%
NC1=NC2(CCCCC2)N(c2cccc(Cl)c2)C(N)=N1 | -19%
N#CCC(=O)Nc1ncc(Cc2ccccc2Cl)s1 | 3%

Some of the compounds tested; rates above refer to the full screens.
